# From PubChem
# KCNQ2 block – KCNQ2 potassium channel inhibitors, primary screen, cell-based, CHO-K1, FluxOR thallium flux, B-score (AID 2156) | Potassium voltage-gated channel subfamily KQT member 2 (Rattus norvegicus), O88943 | 20 min; hits give low values; only compounds with negative scores are shown here; some inactives read as strong as hits | B-score at 10 µM | 310,000 tested, 1.1% active;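 active = fluorescence ratio B-score at most minus 3 library SDs, with starting brightness B-score within 2 library SDs, cut at about -5.5 in these data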
# Target sequence (O88943 whole entry, looked up): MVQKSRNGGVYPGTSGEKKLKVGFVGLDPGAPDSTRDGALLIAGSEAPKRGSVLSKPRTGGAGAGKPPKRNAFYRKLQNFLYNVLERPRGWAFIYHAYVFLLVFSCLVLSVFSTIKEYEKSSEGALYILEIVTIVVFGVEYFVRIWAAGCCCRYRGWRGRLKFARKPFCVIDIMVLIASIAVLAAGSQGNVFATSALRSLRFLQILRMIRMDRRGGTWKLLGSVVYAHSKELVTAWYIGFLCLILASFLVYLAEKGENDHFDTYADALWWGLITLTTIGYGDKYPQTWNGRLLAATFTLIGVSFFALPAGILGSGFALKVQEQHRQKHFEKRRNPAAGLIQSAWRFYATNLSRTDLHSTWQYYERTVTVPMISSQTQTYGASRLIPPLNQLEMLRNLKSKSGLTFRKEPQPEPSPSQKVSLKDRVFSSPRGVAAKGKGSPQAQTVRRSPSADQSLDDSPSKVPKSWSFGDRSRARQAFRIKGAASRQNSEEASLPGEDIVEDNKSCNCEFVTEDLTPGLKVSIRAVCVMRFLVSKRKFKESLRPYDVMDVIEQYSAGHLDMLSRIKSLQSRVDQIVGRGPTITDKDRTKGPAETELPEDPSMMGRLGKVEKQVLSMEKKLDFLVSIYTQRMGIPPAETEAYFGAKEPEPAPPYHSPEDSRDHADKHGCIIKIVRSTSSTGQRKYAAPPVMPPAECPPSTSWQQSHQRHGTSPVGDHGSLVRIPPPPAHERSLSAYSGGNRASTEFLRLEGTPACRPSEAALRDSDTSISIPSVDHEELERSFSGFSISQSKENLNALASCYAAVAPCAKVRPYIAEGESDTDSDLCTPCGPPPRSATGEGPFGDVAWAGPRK
# KCNQ2 block baseline – second read-out of KCNQ2 block, no call of its own (marks repeat the call); B-score; measured here: initial fluorescence intensity artifact check;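 brightness before thallium and not channel activity; 0 = typical well and far values either way flag optical interference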
# * hit, by the source's call; i = inactive. A portion of the library, so the mix of outcomes need not match the whole.
SMILES,KCNQ2 block,KCNQ2 block baseline
CCOc1ccc(CCNC(=O)C2=C(C)C(=O)OC23CCC(C)CC3)cc1 (stereo unspecified),i,0.06
CCC(=O)Nc1ccc(C=C(C(C)=O)C(C)=O)cc1,i,-0.32
Cc1ccc(C(=O)C2CCN(CC(=O)Nc3nc(C)cs3)CC2)cc1,i,-0.67
CN1C(N)=NC(=O)/C1=C\c1ccc(Br)cc1,i,0.24
CCC(C)NC(=O)c1cc2c(=O)n3cccc(C)c3nc2s1 (stereo unspecified),i,1.3
O=C(COC(=O)C1CCN(c2ccc(C(F)(F)F)cn2)CC1)Nc1ccc(Cl)cn1,i,-1.8
CCOc1ccc(N2C(=O)CC(N3CCN(C4CCc5ccccc5C4)CC3)C2=O)cc1 (stereo unspecified),i,0.6
COc1cc2ccccc2cc1C(=O)Nc1sc2c(c1C(N)=O)CCN(C(C)C)C2,-5.9*,0.58*
O=C(NN1CCOCC1)c1ccc(Cl)cc1[N+](=O)[O-],i,-0.92
Cc1noc(C)c1/C=N/Nc1ccc2ccccc2n1,i,1.4
CCC(C)NS(=O)(=O)c1ccc(OC)c(Cl)c1Cl (stereo unspecified),i,-0.73
CCOC(=O)N1CCN(C2CC(=O)N(c3ccc(Oc4ccccc4)cc3)C2=O)CC1 (stereo unspecified),i,0.61
CC(=O)Nc1ccc(S(=O)(=O)N2CCc3c(Cl)cccc3C2)cc1,i,1.1
O=P1(Nn2cnnc2)C=C(c2ccccc2)OC(c2ccccc2)=C1,i,1.1
O=[N+]([O-])c1ccccc1S(=O)(=O)Oc1ccc(C(=S)N2CCOCC2)cc1,i,-0.11
Clc1ccccc1Cn1nnc2c(NCC3CC3)ncnc21,i,4.3
COc1cc(OC)c(OC)cc1CNC(=O)CCN1C(=O)c2cccc([N+](=O)[O-])c2C1=O,i,-0.57
Cc1ccccc1-c1nc(CS(=O)CC(=O)NCc2ccccn2)c(C)o1 (stereo unspecified),i,-0.64
CCC(=O)Nc1ccc(NC(=O)CSc2nnnn2-c2ccc3c(c2)OCCO3)cc1,i,-2.9
CC(C)c1ccc(NC(=O)CSc2nc(-c3ccccc3F)nc3nc[nH]c23)cc1,i,0.68
Nc1ccccc1SC1CC(=O)N(Cc2ccccc2)C1=O (stereo unspecified),i,2.8
COc1ccc(C(CNC(=O)c2cccc(NS(=O)(=O)c3ccc(C)c(F)c3)c2)N(C)C)cc1 (stereo unspecified),i,-0.97
O=C(CNC(=S)N(Cc1ccccc1)Cc1ccccc1F)NCCc1ccc(Cl)cc1,i,-0.4
CCC(=O)N1c2ccc(S(=O)(=O)N3CCOCC3)cc2CC1C (stereo unspecified),i,1.9
CCOC(=O)n1c(SCC(=O)N(CC)CC)nc2ccccc21,i,1.1
Fc1cc(Br)ccc1Nc1nc2ccccc2n2nnnc12,i,0.32
Cc1ccc(-c2nn(-c3ccccc3)cc2C(=O)NCCCN2CCOCC2)cc1,i,1.8
CCC(CO)NC(=O)c1cccc(S(=O)(=O)N2c3ccccc3CC2C)c1 (stereo unspecified),i,2.2
NC(=S)N/N=C/c1ccc(-c2ccccc2)o1,i,0.87
Cc1cccc(OCC(=O)NCC(=O)N/N=C/c2ccccc2)c1,i,0.32
COc1ccc(NC(=S)NCC(c2ccco2)N2CCCC2)cc1 (stereo unspecified),i,-1.3
CCn1nnnc1-c1ccc(OC)c(S(=O)(=O)NCc2ccccc2)c1,i,0.69
Cc1nc2cc(C(F)(F)F)ccc2n1CCNc1nc(-c2ccc([N+](=O)[O-])c(Cl)c2)cs1,i,-0.59
Fc1ccccc1CCNc1nnnn1-c1ccccc1,i,0.03
Cc1ccc(CNC(=O)c2cc(C)nn2-c2ccccc2)cc1,i,-1.7
C/C(=N/OC(=O)c1ccccc1)c1oc(C)nc1C,i,-1.9
Cc1ccc(O)c(CNc2cccc3cccnc23)c1,i,0.43
Cc1ccc2nc(SC(C)C(=O)N3CC(C)OC(C)C3)[nH]c2c1 (stereo unspecified),i,0.3
CCc1ccc(S(=O)(=O)NCCc2cn3cccc(C)c3n2)s1,i,0.89
Cc1cc(OC(C)C(=O)NC(Cc2c[nH]c3ccc(O)cc23)C(=O)O)c2c(C)c(C)c(=O)oc2c1 (stereo unspecified),i,0.5
CCc1ccccc1NC(=S)NN,i,-1.5
O=C(c1cc(-c2ccc(Cl)c(Cl)c2)on1)N1CCN(c2ccccc2)CC1,i,-0.02
O=C(O)CCN1C(=O)/C(=C\c2cccc(OCc3ccccc3)c2)SC1=S,i,0.22
CCc1ccc2c(COC(=O)c3n[nH]c4ccccc34)cc(=O)oc2c1,i,0.91
O=C(/C=C/c1cccnc1)c1ccccc1O,-5.9*,-0.56*
COc1cccc(NC(C(=O)Nc2cccc(C(C)=O)c2)c2ccccc2)c1 (stereo unspecified),i,0.84
O=C(Nc1ccccc1F)c1ccccc1-c1ccc(C(F)(F)F)cc1,i,0.06
COC(=O)C1=C(N)c2c(F)cccc2C1(C#N)c1ccc(F)cc1 (stereo unspecified),i,-0.03
CCOc1ccccc1NC(=O)CCn1nc(C)c(S(=O)(=O)N2CCCCC2)c1C,i,0.73
O=C1C(=O)N(C2CCCC2)C(=O)N1Cc1c(F)cccc1Cl,i,-0.57
O=S(=O)(Cc1ccccc1Cl)NCc1ccccc1,i,0.92
Clc1ccc(C2=Nn3c(nnc3-c3cccnc3)SC2)s1,i,0.82
O=C(CN1C(=O)C2CC=CCC2C1=O)Nc1nc2ccccc2[nH]1 (stereo unspecified),i,-0.96
Cc1cc(C(=O)Nc2cccc(C)c2C)n(-c2ccccc2)n1,i,0.18
O=C(CO/N=C1\CCCc2nonc21)Nc1ccccc1Cl,i,2
CCCn1nnnc1NCc1ccccc1OCC,i,0.05
COc1ccc(/C=C2\SC(=S)N(CC(=O)OCC(=O)Nc3ccc(C)cc3Cl)C2=O)cc1,i,0.32
O=C(Nc1nnc(-c2ccccc2)o1)c1cc(-c2cccs2)nc2ccccc12,i,-1.5
Cc1ccc(S(=O)(=O)NCCc2ccncc2)cc1[N+](=O)[O-],i,-1.1
COCCn1nnnc1C(c1cc(OC)ccc1OC)N1CCc2ccccc2C1 (stereo unspecified),i,-0.95

# Remaining list, next part
SMILES,KCNQ2 block,KCNQ2 block baseline
C=C(C)C(=O)Nc1cccc(C2=NOC3(C2)C[C@@H](C(N)=O)N(C(=O)CC(c2ccccc2)c2ccccc2)C3)c1 (stereo partly specified),i,-0.14
Cc1nn(-c2ccccc2)c(N2CCCC2)c1C=O,i,0.57
Cc1ccnc(SCC(=O)c2ccc(Br)s2)n1,i,0.19
CCn1c(SCC(=O)c2ccc(NS(=O)(=O)c3ccccc3)cc2)nnc1-c1cccs1,i,-1.1
Cn1cc(SCC(=O)Nc2nccs2)c2ccccc21,i,1.2
O=C(O)c1ccc(NC2OC[C@@H](O)[C@H](O)[C@H]2O)cc1 (stereo partly specified),i,1.2
CC(C)n1nnc2c(=O)oc3ccccc3c21,i,-0.42
O=C(C1=C(O)C(=O)N(CCc2ccccc2)C1c1cccs1)c1ccco1 (stereo unspecified),i,0.19
CCCn1cc(CN2CCC(n3nccc3NC(=O)c3ccc4c(c3)OCO4)CC2)c(C)n1,i,-2
CC(=O)N1CCCc2cc(S(=O)(=O)N(C)CCC#N)ccc21,i,0.64
CN(CC(=O)NNC(=O)Cc1ccccc1F)S(=O)(=O)c1ccc(Cl)cc1,i,0.56
CC(C)CC(=O)N1CCN(Cc2ccccc2Cl)CC1,i,-1
CCN(CC)CCNC(=O)c1ccc(NC(=O)c2c(C)nn(-c3ccc(F)cc3)c2Cl)cc1,i,0.51
COC(=O)[C@@H]1C[C@@]2(O)[C@H](O)[C@H](O)[C@H](O)C[C@H]2N1Cc1ccc(C(F)(F)F)cc1,i,-0.48
COC(=O)c1cccc(NC(=S)NCCC2=CCCCC2)c1,i,-0.41
CN(C)/C=C/C=C1C(=O)CCCC1=O,i,-0.1
CN(C)S(=O)(=O)c1ccc(C(=O)Nc2cc3c(cc2C(=O)O)OCCCO3)cc1,i,-1.6
COC(=O)C(C(=O)OC)C(C[N+](=O)[O-])c1ccc(OC)cc1 (stereo unspecified),i,-0.53
CCCCNc1ccc(S(N)(=O)=O)cc1[N+](=O)[O-],i,0.36
COc1ccc2nc(/N=C\N(C)C)sc2c1,i,-0.17

# Filtered by structure: those above with an aryl methoxy group.
SMILES,KCNQ2 block,KCNQ2 block baseline
COc1cc2ccccc2cc1C(=O)Nc1sc2c(c1C(N)=O)CCN(C(C)C)C2,-5.9*,0.58*
CCC(C)NS(=O)(=O)c1ccc(OC)c(Cl)c1Cl (stereo unspecified),i,-0.73
COc1cc(OC)c(OC)cc1CNC(=O)CCN1C(=O)c2cccc([N+](=O)[O-])c2C1=O,i,-0.57
COc1ccc(C(CNC(=O)c2cccc(NS(=O)(=O)c3ccc(C)c(F)c3)c2)N(C)C)cc1 (stereo unspecified),i,-0.97
COc1ccc(NC(=S)NCC(c2ccco2)N2CCCC2)cc1 (stereo unspecified),i,-1.3
CCn1nnnc1-c1ccc(OC)c(S(=O)(=O)NCc2ccccc2)c1,i,0.69
COc1cccc(NC(C(=O)Nc2cccc(C(C)=O)c2)c2ccccc2)c1 (stereo unspecified),i,0.84
COc1ccc(/C=C2\SC(=S)N(CC(=O)OCC(=O)Nc3ccc(C)cc3Cl)C2=O)cc1,i,0.32
COCCn1nnnc1C(c1cc(OC)ccc1OC)N1CCc2ccccc2C1 (stereo unspecified),i,-0.95
COC(=O)C(C(=O)OC)C(C[N+](=O)[O-])c1ccc(OC)cc1 (stereo unspecified),i,-0.53
COc1ccc2nc(/N=C\N(C)C)sc2c1,i,-0.17

# Going on with the list.
SMILES,KCNQ2 block,KCNQ2 block baseline
COc1ccc(CCN(C)C(=O)Cc2ccc(-c3ccccc3)cc2)cc1OC,i,-0.96
CSCC[C@@H](C(=O)Nc1ccc2c(c1)OCCO2)N1Cc2ccccc2C1=O,i,-0.01
O=C(Cn1cnc2sc3c(c2c1=O)CCCC3)NCC(=O)Nc1ccc(F)cc1F,i,-0.51
COc1cc(C2N=C(c3ccccc3)NO2)cc(Br)c1O (stereo unspecified),i,-2
Cc1ccc(SCC(=O)c2c(C)nc3cc(C)ccn23)cc1,i,-1.7
COC(=O)/C(=C/c1c[nH]c2ccccc12)[N+](=O)[O-],i,0.22
O=C1C=C(c2ccc(F)nc2)CCC1,i,-1
C=CCc1c(C)nc(N2CCSCC2)[nH]c1=O,i,0.51
O=C(CSc1nnc(SCc2ccc(Cl)cc2)s1)N/N=C/c1ccc(Cl)cc1Cl,i,1.7
CCC(C)[C@H](NC(=O)N1CCC(C)CC1)C(=O)O (stereo partly specified),i,-1.9
CCC(=O)Nc1cc(C)c(NC(=O)C23CC4CC(CC(C4)C2)C3)cn1,i,-1.9
CCC(Sc1nccn1C)C(=O)Nc1ccc(Cl)cn1 (stereo unspecified),i,0.05
O=C(NC1CCCC1)C(c1ccncc1)N(CC1CCCO1)C(=O)Cn1nnc(-c2cccs2)n1 (stereo unspecified),i,0.55
COc1cccc(-c2cc(C(=O)Nc3cnn(Cc4ccc(F)cc4)c3)no2)c1,i,-0.01
COc1ccc(C(=O)CNc2ccc(C)cc2C)cc1,i,1.5
CC(C)(CO)CNC1CCCN(C2Cc3ccccc3C2)C1 (stereo unspecified),i,0.6
Cc1ccc(S(=O)(=O)Oc2ccc(/C=C(/NC(=O)c3ccccc3)C(=O)O)cc2)cc1,i,1.1
CC(C)(C)S(=O)(=O)/C(C#N)=C/c1sccc1C1OCCO1,i,0.45
Nc1nnc(SCc2ccc(Cl)cc2)s1,i,1.9
CC(=O)c1c(C)oc2ccc(NS(=O)(=O)c3ccccc3)cc12,i,-1.1
COC(=O)c1ccccc1NC(=O)NCCc1ccc(OC)c(OC)c1,i,-0.83
CCOc1ccccc1NC(=O)CN1C(=O)COc2ccc(C)cc21,i,1.3
CCC(=O)Nc1c(C)nn(-c2ccc(C)c(C)c2)c1C,i,1.6
CCCC(c1nnnn1Cc1ccccc1)N1CCC(C(N)=O)CC1 (stereo unspecified),i,0.1
CCOC(=O)c1cc2ccccc2nc1C,i,1.4
Clc1cccc(CN2C3=NCCCN3c3ccccc32)c1,i,-0.14
CN1/C(=C\C=C(/C#N)C(=O)Nc2ccc(Cl)cc2)C(C)(C)c2ccccc21,i,6.1
Cc1ccc(-c2cc(C(=O)NCc3ccco3)no2)cc1,i,0.18
Cn1ccnc1SCc1ccc(Cl)cc1Cl,i,0.34
Cc1cc(C(=O)Nn2c(-c3ccc(Br)cc3)nc3ccccc3c2=O)ccc1[N+](=O)[O-],i,-1.4
O=C(CN1C(=O)c2ccccc2S1(=O)=O)NCc1c(F)cccc1F,i,0.17
COc1ccc2[nH]c(=O)c(CN(Cc3cccs3)C(=S)NCC3CCCO3)cc2c1 (stereo unspecified),i,0.84
Cc1ccnc(NC(=O)CCCc2ccccc2)c1,i,-1.1
CC(C)=CCC/C(C)=C/CN(CC(C)O)CC(C)O (stereo unspecified),i,-2.8
Cc1cc(C)n(-c2nncn2/N=C/c2ccccc2F)n1,i,0.93
CCCCN(CC)CCCNC(=O)c1ccc2c(c1)N(CC)C(=O)c1ccccc1S2(=O)=O,i,-0.2
CCCCC(=O)N/N=C/c1cc([N+](=O)[O-])ccc1N1CCOCC1,i,-0.27
C=CCc1cccc(/C=N/c2nc3ccccc3n2CC)c1O,i,1.5
COc1cc(C(c2nnnn2C(C)(C)C)N2CCN(c3nc4ccccc4s3)CC2)ccc1O (stereo unspecified),i,-0.07
CCOC(=O)c1ccccc1NC(=S)N1CCCCC1,i,-1.6
CSc1c(CC(=O)Nc2ccccc2)n(C)c2ccccc12,i,0.59
